Assay outcomes as filed in PubChem BioAssay.
RE007 growth inh: qHTS Assay for Inhibitors of the HIV-1 protein Vpr. S. pombe RE007 Vpr strain, BacTiter-Glo ATP luminescence, 24 h; control for the full effect not named in the record. Potency, µM (doses to about 92.2 µM), for the others: at the highest dose activity change, negative = less growth. hit rate 0.21% among 360,000. AID 651644, 2012; active = well fitted falling curve with a large enough effect; inconclusive = small, poorly fitted or top-dose-only effect; inactive = no such curve, though single readings can be large or run the other way;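 also: % is scaled to controls: 0 for no effect and ±100 for the full control effect; nearly all actives have a fitted effect of over 50% in size; the assay follows cell death caused by Vpr and the record does not say whether a fall means rescue or toxicity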
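Fission yeast RE007 carrying one integrated HIV-1 vpr copy, seeded at OD 0.01 in PMG+AL medium with 23 nL pinned compound. Grown 24 h at 30 degrees; viability read by BacTiter-Glo luminescence after 5 min.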
NS1 inh: qHTS Assay for Inhibitors of Influenza NS1 Protein Function; S. cerevisiae slowed by influenza A NS1, growth recovery by OD600; Potency, µM (titrated, usually from 46.1 µM), for inactives: at the top dose activity, positive = more growth; hit rate 0.4% among 270,000; also: actives are rising curves; nearly all actives have a fitted effect of over 50% in size
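OD600 was taken as the measure of yeast growth restored by compound in an NS1-expressing S. cerevisiae strain. Cells had been washed out of glucose medium and diluted 1:100 into galactose -URA medium, pH 6.0.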
Marburg entry inh: qHTS for inhibitors of binding or entry into cells for Marburg Virus. hit rate 1.8% among 300,000. Marburg virus pseudotyped entry inhibition, cell reporter; control for the full effect not named in the record; about a third of the inactives were read at about 46 µM. Potency, µM (top dose mostly 37.8 µM), inactives show at the highest dose activity change, negative = inhibition, most hits filed as inhibitors; active = well fitted inhibition curve with a large enough effect; inconclusive = small, poorly fitted or top-dose-only effect, or effect the other way; inactive = flat fitted curve, though single readings scatter; tested in HEK293 cells; about a fifth of its hits are not listed in these tables; also: % is scaled to controls: 0 for no effect and ±100 for the full control effect; luciferase read-out
SARS PLpro yeast: qHTS of Yeast-based Assay for SARS-CoV PLP; AID 485353, 2010; S. cerevisiae expressing SARS-CoV PLpro, growth rescue; control for the full effect not named in the record; Potency, µM (doses to about 32.9 µM), for the others: at the highest dose activity, positive = growth rescue; hit rate 0.19% among 330,000; also: 0% is about no effect; nearly all actives have a fitted effect of over 55% in size; growth read by luminescence after 48 h
Cruzain inh Det: qHTS Assay for Promiscuous and Specific Inhibitors of Cruzain (with detergent). hit rate 0.43% among 200,000. Cruzipain (Trypanosoma cruzi), P25779. Potency, µM, without a hit: max response, negative = inhibition, actives largely listed as inhibitors. purified cruzain, Z-FR-AMC fluorescence, 0.01% Triton; active = well fitted curve in the direction sought with a large enough effect; inconclusive = small, poorly fitted or top-dose-only effect, or another doubt; inactive = no such curve, though single readings can be large; an effect the other way counts as inactive or inconclusive;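 also: plate controls were neutral wells for no effect and buffer without enzyme for full effect; nearly all actives have a fitted effect of over 40% in size; top concentration of the series not given in the record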
Target sequence (P25779 123-467 limits assumed): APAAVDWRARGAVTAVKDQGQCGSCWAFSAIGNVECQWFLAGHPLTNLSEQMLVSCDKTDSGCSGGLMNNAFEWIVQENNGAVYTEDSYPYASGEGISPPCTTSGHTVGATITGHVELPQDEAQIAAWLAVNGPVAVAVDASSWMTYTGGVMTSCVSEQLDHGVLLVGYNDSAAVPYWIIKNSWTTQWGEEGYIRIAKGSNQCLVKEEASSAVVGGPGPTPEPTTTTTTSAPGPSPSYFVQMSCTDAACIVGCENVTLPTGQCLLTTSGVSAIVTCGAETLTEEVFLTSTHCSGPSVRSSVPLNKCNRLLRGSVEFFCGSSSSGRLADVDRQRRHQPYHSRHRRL
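15 min RT preincubation of 1.5 nM cruzain with compound, then 2 uM Z-FR-AMC added; kinetic AMC fluorescence, 60 s delta. Triton X-100 0.01%, pH 5.5.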
Lassa entry inh: qHTS for Inhibitors of binding or entry into cells for Lassa Virus; Potency, µM (highest dose often 37.9 µM), inactives show top-dose activity change, negative = inhibition, hits mostly inhibitors; Lassa virus pseudotype entry inhibition, cell reporter; control for the full effect not named in the record; hit rate 1.2% among 300,000; active means well fitted inhibition curve with a large enough effect; inconclusive means small, poorly fitted or top-dose-only effect, or effect the other way; inactive means flat fitted curve, though single readings scatter; tested in HEK293 cells; also: % is scaled to controls: 0 for no effect and ±100 for the full control effect; nearly all actives have a fitted effect of over 50% in size; luciferase read-out
2A StopGo: High Throughput Screening for Foot and Mouth Disease Virus Antivirals. human cells with a luciferase reporter of 2A StopGo recoding; control for the full effect not named in the record. Potency, µM (highest dose often 57.9 µM), for inactives: at the top dose signal change, negative = less light. hit rate 1.2% among 410,000. AID 1159524, 2015; active = well fitted falling curve with a large enough effect; inconclusive = small, poorly fitted or top-dose-only effect; inactive = no such curve, though single readings can be large or run the other way; tested in HEK293T cells; also: % is scaled to controls: 0 for no effect and ±100 for the full control effect; nearly all actives have a fitted effect of over 45% in size; luciferase light after 4 h
Cruzain inh noDet: qHTS Assay for Promiscuous and Specific Inhibitors of Cruzain (without detergent) | hit rate 2.3% among 200,000 | purified cruzain, Z-FR-AMC fluorescence, no detergent | Cruzipain (Trypanosoma cruzi), P25779 | Potency, µM, inactives show max response, negative = inhibition, most hits filed as inhibitors; active = well fitted curve in the direction sought with a large enough effect; inconclusive = small, poorly fitted or top-dose-only effect, or another doubt; inactive = no such curve, though single readings can be large; an effect the other way counts as inactive or inconclusive;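 also: plate controls were enzyme without inhibitor for no effect and buffer without enzyme for full effect; nearly all actives have a fitted effect of over 40% in size; top concentration of the series not given in the record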
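Detergent-free condition (0.00005% Triton X-100) in acetate buffer pH 5.5 with DTT. 1.5 nM enzyme and compound were pre-mixed 15 min, then 2 uM Z-FR-AMC substrate added; reaction progress from fluorescence change between first and third reads (60 s).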
Starred values were filed as active, the others as inactive; u = inconclusive; x = not tested or not shown; & = joins results of further samples; [ ] = dose if it differs, or a comment. Unless noted, calls follow the shape of the dose curve; as a rule, active means well fitted rising curve with a large enough effect; inconclusive means small, poorly fitted or top-dose-only effect; inactive means no such curve, though single readings can be large or run the other way. Potency is read from the fitted curve at half-maximal effect.

SMILES	RE007 growth inh	NS1 inh	Marburg entry inh	SARS PLpro yeast	Cruzain inh Det	Lassa entry inh	2A StopGo	Cruzain inh noDet
COc1cccc(CNC(=O)c2ccccc2NC(=O)C2=C(C)OCCS2)c1OC	-10%	-7%	x	-10%	x	x	-22%	x
Cc1ccc(C(=O)N2N=C(c3ccccc3O)CC2c2ccccc2)cc1 (configuration not stated)	2%	-3%	1%[46.1 µM]	1%	x	6%[46.1 µM]	0%	x
CCOC(=O)Cc1ncccc1C(=O)Nc1ccc(OC)cc1	5%	x	19%[46.1 µM]	2%	x	-16%	-4%	x
C=CCn1c(C)cc(C(=O)CN2C(=O)NC3(CCCc4ccccc43)C2=O)c1C (configuration not stated)	10%	5%	0%	-8%	1.2%	u	-11%	1%
CCN(CC)S(=O)(=O)c1ccc(-n2c(=O)c(C(C)C)c(C)n2C)cc1	-7%	-2%	u	0%	x	-7%	-6%	x
Cn1c(=O)c2c(nc(Oc3ccccc3Cl)n2Cc2ccc(C#N)cc2)n(C)c1=O	x	x	u	x	-1.3%	-17%[46.1 µM]	-7%	-2%
Cc1ccc(NC(=O)C2(S(=O)(=O)c3ccc(Cl)cc3)CC2)c(Br)c1	2%	6%	u	-3%	x	14%[46.1 µM]	34%[activator]	x
Cc1ccccc1NC(=O)Cc1nc(COC(=O)c2ccc(O)cc2O)cs1	-16%	15%	-16%	-3%	x	u	-35%	x
CCOC(=O)C1CCCN(Cc2ccc3c(c2)OCO3)C1 (configuration not stated)	1%	-2%	-15%	0%	1.0%	-24%[14.3 µM]	9%	1%
CCSc1nnc(NC(=O)CSc2nnc(Cc3cccn3C)n2-c2ccc(C)cc2)s1	-3%	5%	1%	-3%	1.4%	-15%	-11%	8%
Nc1ccc(C2(c3ccc(N)cc3)CN3CCC2CC3)cc1	0%	10%	-4%	8%	5.8%	14%	1%	-1%
Cc1cccc(Cn2c(=O)n(-c3ccc(Cl)c(Cl)c3)c(=O)c3c(C)c(C)sc32)c1	x	x	-5%[46.1 µM]	x	-1.8%	7%[46.1 µM]	0%	-12%
Cn1nc(C(F)(F)F)cc1C(=O)Nc1ccc(Cl)cc1	u	-38%	-10%[46.1 µM]	-5%	x	u	-30%	x
O=C(NCc1ccco1)c1ccc(Cn2c(=O)c3ccccc3n(Cc3cccc(F)c3)c2=O)cc1	-24%	8%	u	2%	4.0%	-30%	0%	u
Cc1cccc2cc(CN(Cc3ccc(F)cc3)C(=O)N3CCOCC3)c3nnnn3c12	7%	11%	u	5%	2.2%	-22%	-20%	-25%
C=CCn1c(O)c(C(CC)=NCCN2CCOCC2)c(=O)[nH]c1=O	3%	-5%	16%	3%	4.1%	4%	-20%	-1%
O=C(NNc1c2ccccc2nc2ccccc12)c1ccc(Cl)cc1	-3%	-2%	u	0%	x	-6%[46.1 µM]	-9%	x
CN1CCN(c2nc(-c3ccccc3Cl)nc3ccccc23)CC1	-23%	0%	x	10%	x	x	-8%	x
O=C(NCCCN1CCOCC1)c1cn(-c2ccccc2)nc1-c1ccc(Br)cc1	-14%	x	u	7%	x	-2%	-25%	x
CC1=C(C(=O)Nc2ccc(C)cc2C)C(c2ccc(C(C)C)cc2)n2nc(C(F)(F)F)nc2N1 (configuration not stated)	x	x	-9%[46.1 µM]	x	-3.5%	7%[46.1 µM]	-11%	20%
CC(C)(CO)CNC(=O)CCc1nnc(CCCc2ccccc2)o1	2%	1%	x	0%	x	x	40%[activator]	x
COC(=O)C(C)n1cnc2c(nnn2-c2cccc(Cl)c2)c1=O (configuration not stated)	4%	-7%	x	-2%	5.7%	x	18%	7%
Cc1cc(C)c2c(CC(=O)NC3CCS(=O)(=O)C3)coc2c1 (configuration not stated)	4%	-5%	x	-2%	x	x	-15%	x
Fc1ccc(NC(=S)N/N=C/c2cccc(Br)c2)c(F)c1	-4%	0%	-25%	9%	-5.1%	-1%	8%	25µM*
CCOc1ccccc1CNC(=O)C1CCN(S(=O)(=O)c2cccc3nonc23)CC1	x	x	x	x	-0.2%	1%[46.1 µM]	-4%	-6%
Cc1cc(Br)c(NC(=O)COC(=O)C2CC2C)c(Br)c1 (configuration not stated)	33%	17%	u	6%	-4.0%	6%	-20%	-2%
Cc1ccc(CC2S/C(=N/N=C/c3ccco3)NC2=O)cc1 (configuration not stated)	-21%	x	18%[46.1 µM]	0%	x	u	17%	x
CC(C)N(C(=O)Cn1c(SCC(=O)Nc2nccs2)nc2ccccc21)C(C)C	6%	-6%	-16%	0%	0.3%	17%	-18%	-13%
CCCCn1nc2cc(C(=O)NCC34CC5CC(CC(C5)C3)C4)ccc2c1OC	-7%	1%	x	4%	-5.3%	x	u	-14%
COc1ccc(C(=O)Nc2cccc(-c3nc4cccnc4s3)c2C)c(OC)c1	x	x	x	x	1.6%	12%[46.1 µM]	-28%	15%
CCC(=O)c1c[nH]c(C(=O)NCc2cccnc2)c1	u	3%	6%[46.1 µM]	-1%	x	x	2%	x
Cc1ccc(S(=O)(=O)N(C)C)cc1NC(=O)COC(=O)c1c(-c2ccccc2)noc1C	-11%	x	-8%	-5%	x	-2%	u	x
CCOc1ccccc1N(C)C(=O)C1CCCN(c2ncnc3onc(-c4ccc(F)cc4)c23)C1 (configuration not stated)	x	x	x	x	-0.7%	-3%[46.1 µM]	-28%	6%
CCOC(=O)Cc1csc(NC(=O)c2cc3ccccc3o2)n1	u	x	u	-7%	x	-6%[46.1 µM]	3%	x
O=C(O)CC1Sc2ccccc2NC1=O (configuration not stated)	5%	-1%	-4%	11%	-1.2%	-4%	13%	-10%
CC(=O)Nc1ccc(S(=O)(=O)NC(CC(=O)O)c2ccc(C)cc2)cc1 (configuration not stated)	11%	-2%	x	0%	x	x	46%[activator]	x
Cc1ccc(S(=O)(=O)N(Cc2ccc(F)cc2)Cc2ccco2)cc1	-22%	-130%	u	x	-5.5%	u	0%	5%
COc1cccc(/C=C(\C(=O)O)c2ccccc2)c1	2%	x	-14%[46.1 µM]	1%	x	-12%	7%	x
COc1ccc(C2=C(N3CCN(c4cc(C)ccc4C)CC3)c3ccccc3C2=O)cc1	x	x	0%[46.1 µM]	x	-14%	4%[46.1 µM]	0%	8%
CN(C)CC(C)(C)CNS(=O)(=O)c1ccc(OC(F)(F)F)cc1	19%	-4%	u	-2%	x	2%	-9%	x
Cc1ccccc1C(=O)O/N=C(\N)c1cccc([N+](=O)[O-])c1	-6%	-46%	u	-24%	7.0%	u	-16%	0%
Cc1cc(=O)n2[nH]nnc2n1	15%	-1%	x	1%	x	x	11%	x
COc1ccc(C(=O)O/N=C(/c2ccccc2)c2ccncc2)cc1OC	2%	x	-25%[46.1 µM]	-1%	x	x	u	x
Cc1nn(-c2ccccc2)c2c1N(CC(=O)NCc1ccc(N(C)C)cc1)C(=O)CS2	x	x	x	x	-2.6%	u	-8%	-17%
Cc1ccccc1Nc1nc2ccccc2s1	u	-16%	u	-36%	-5.6%	u	0%	-1%
CCOc1ccc(CNC(=O)c2cc(-c3ccc(Cl)s3)nc3ccccc23)cc1	x	x	28%[46.1 µM]	x	-0.7%	0%[46.1 µM]	-2%	-5%
O=C(CSc1nc(NS(=O)(=O)c2ccccc2)cc(=O)[nH]1)Nc1ccccc1C(F)(F)F	3%	16%	8%[46.1 µM]	6%	x	2%	-25%	x
CCOc1ccc(N2C(=O)CC(N3CCN(c4ccc(C(=O)c5ccncc5)cc4)CC3)C2=O)cc1 (configuration not stated)	-26%	-103%	u	x	x	18%	u	x
O=C(CCCn1nnc(-c2cccnc2)n1)c1ccc(F)cc1	14%	-61%	1%	-18%	1.7%	1%	0%	1%
O=C(c1cccc(Cl)c1)N1CCCC(c2ccc(Cl)cc2)=N1	7%	-2%	-21%	-34%	-6.4%	u	x	4%
COc1ccc(NC(=O)c2cccc3c(=O)c4c([nH]c23)CCCC4)cc1	x	x	4%[46.1 µM]	x	-3.0%	u	-18%	14%
Cc1ccc(S(=O)(=O)Cc2ccc(C(=O)N3CCCCC3C)cc2)cc1 (configuration not stated)	-1%	-4%	u	3%	x	-8%	0%	x
Cc1cc2c(cc1C)NC(c1cccnc1)C1=C(CC(C)(C)CC1=O)N2 (configuration not stated)	2%	-2%	13%&13%	-6%	-5.2%	-4%	0%	-4%
Fc1ccc(N2CCN(C(=S)NCC3CCCO3)CC2)cc1 (configuration not stated)	3%	-5%	5%[46.1 µM]	-1%	x	6%	-1%	x
Cc1ccc(CNS(=O)(=O)c2c(C)[nH]c(C)c2C(=O)N2CCCC2)cc1	-3%	2%	x	0%	x	x	17%	x
Cc1cccc(OCC(=O)Nc2ccccc2OCc2cc(=O)n3ccccc3n2)c1	x	x	x	x	3.9%	-3%[46.1 µM]	-7%	-4%

One compound at a time, as listed above. Order of values: RE007 growth inh	NS1 inh	Marburg entry inh	SARS PLpro yeast	Cruzain inh Det	Lassa entry inh	2A StopGo	Cruzain inh noDet
Entry for `CCOc1ccc(CNC(=O)c2cc(-c3ccc(Cl)s3)nc3ccccc23)cc1` : x	x	28%[46.1 µM]	x	-0.7%	0%[46.1 µM]	-2%	-5%
Entry for `Cc1ccc(S(=O)(=O)Cc2ccc(C(=O)N3CCCCC3C)cc2)cc1` (configuration not stated) : -1%	-4%	u	3%	x	-8%	0%	x
Entry for `O=C(c1cccc(Cl)c1)N1CCCC(c2ccc(Cl)cc2)=N1` : 7%	-2%	-21%	-34%	-6.4%	u	x	4%

Not a hit list. Share with any hit: about 4.7%.
